Screening results deposited in PubChem by ICCB-Longwood Screening Facility, Harvard Medical School.
MenB inh: inhibitors of Mycobacterium tuberculosis MenB enzyme; P9WNP5; MenB enzyme assay, absorbance read-out; some hits fall short of the stated cut; AID 540299; inhibition, %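 (about 12 µg/mL by stock and volumes)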; actives 0.43% (n = 100,000);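 active means mean of two replicates above 30%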;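 further: 0% = no compound and 100% = wells with inactive enzyme; the first replicate is given; strong numbers were not always called active; inactives centre near -10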
Target sequence (P9WNP5 whole entry, looked up): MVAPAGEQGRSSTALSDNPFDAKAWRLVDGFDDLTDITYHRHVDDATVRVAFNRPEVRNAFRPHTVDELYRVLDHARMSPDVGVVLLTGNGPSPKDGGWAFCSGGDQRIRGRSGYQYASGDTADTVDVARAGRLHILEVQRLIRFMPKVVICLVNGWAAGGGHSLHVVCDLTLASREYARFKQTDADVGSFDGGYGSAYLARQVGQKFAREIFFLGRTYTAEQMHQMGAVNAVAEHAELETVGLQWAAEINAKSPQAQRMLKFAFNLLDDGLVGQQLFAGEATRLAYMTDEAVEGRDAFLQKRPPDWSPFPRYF
Mtb MbtI inh: inhibitors of Mycobacterium tuberculosis siderophore enzyme MbtI | purified MbtI enzyme, fluorescence intensity read-out | inhibition, %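 (about 17 µg/mL by stock and volumes)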 | actives 0.89% (n = 100,000) | AID 493033;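 active means above 50% in both replicates, above 80% if mildly self-fluorescent; inactive means the rest, strongly fluorescent compounds included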;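 further: 0% = mean of negative and 100% = mean of positive controls; one replicate is shown; some compounds called inactive have numbers as strong as hits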
Target sequence (P9WFX0 whole entry, looked up): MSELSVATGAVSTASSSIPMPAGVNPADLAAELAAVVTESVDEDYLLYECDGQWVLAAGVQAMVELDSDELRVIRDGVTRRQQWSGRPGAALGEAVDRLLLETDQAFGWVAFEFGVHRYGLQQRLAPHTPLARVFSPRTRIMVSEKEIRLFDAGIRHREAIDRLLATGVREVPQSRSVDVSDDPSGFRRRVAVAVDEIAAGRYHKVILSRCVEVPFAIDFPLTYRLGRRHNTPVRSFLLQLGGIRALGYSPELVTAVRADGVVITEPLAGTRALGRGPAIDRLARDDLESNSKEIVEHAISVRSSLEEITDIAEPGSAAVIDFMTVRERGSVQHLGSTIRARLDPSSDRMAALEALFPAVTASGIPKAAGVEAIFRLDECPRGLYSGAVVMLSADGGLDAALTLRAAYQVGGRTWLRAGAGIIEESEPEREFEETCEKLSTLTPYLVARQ
Polio RdRp inh: inhibitors of poliovirus RNA polymerase binding and polymerization | P03300 | poliovirus polymerase elongation, fluorescence polarization; stronger effect = lower value | % elongation, % (compound at 16.7 µg/mL) | actives 0.66% (n = 150,000) | AID 588519; in the data active means % elongation below about 90%; further: some results filed as inactive read as strong as hits
Polio RdRp inh intensity: also measured in Polio RdRp inh; calls as there; % elongation; measured here: total intensity read-out; formula for this scale not given here;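 total fluorescence in place of polarization; lower means less elongation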
Starred values were filed as active, the others as inactive; x = not tested or not shown.

#1 C=CCN1C(=O)CC(N2CCOCC2)C1=O (configuration not stated)
#2 CC(C)(O)c1cc(=N)sc2nc3ccccc3n12
#3 O=C(OC1CCc2ccccc2C1=O)c1ccc(O)cc1 (configuration not stated)
#4 CSc1nnc(-c2csc(S(=O)(=O)Nc3cccc(C(F)(F)F)c3)c2)n1C
#5 CC(C)=NNC(=O)c1cccc2cc[nH]c12
#6 Cc1ccc(NC(=O)/C(C#N)=N/Nc2ccc(S(=O)(=O)N3CCOCC3)cc2)c(C)c1
#7 COc1ccc(F)cc1S(=O)(=O)NCC1COC2(CCCCC2)O1 (configuration not stated)
#8 CCOc1ccc(S(=O)(=O)NCCC(=O)OC2CCOC2=O)cc1 (configuration not stated)

Screen / compound no. | 1 | 2 | 3 | 4 | 5 | 6 | 7 | 8
MenB inh | -11 | 6 | 12 | -14 | -10 | -61 | -19 | -3
Mtb MbtI inh | -16 | 13 | 5 | -1 | 22 | 28 | 5 | 0
Polio RdRp inh | 101 | 101 | 100 | 104 | 103 | 106 | 101 | 106
Polio RdRp inh intensity | 105 | 101 | 103 | 103 | 102 | 107 | 102 | 110

#9 O=C(Cn1c2c(c(-c3ccccc3Cl)cc1=O)CCC2)NCCCN1CCOCC1
#10 Cc1onc(-c2ccccc2)c1C(=O)N1CCC(C)CC1
#11 O=C1CC(C(=O)N2CCN(C(=O)C3CC3)CC2)CN1Cc1ccco1 (configuration not stated)
#12 CCN(C(=O)CSc1nc(N)cc(=O)[nH]1)C1=CCCC1
#13 CC1CCCCN1C(=O)COC(=O)/C=C/c1ccc2ccccc2n1 (configuration not stated)
#14 NC(=S)CN1CCCC1=O
#15 O=C(Cc1ccc(Cl)cc1)NCCN1CCOCC1
#16 O=C(Nc1ccccc1)C(CC(=O)N1CCOCC1)C(=O)c1ccccc1 (configuration not stated)

Screen / compound no. | 9 | 10 | 11 | 12 | 13 | 14 | 15 | 16
MenB inh | -3 | 18 | -32 | 8 | 11 | 3 | 17 | -16
Mtb MbtI inh | 22 | 4 | -2 | 6 | 20 | 6 | -7 | -10
Polio RdRp inh | 101 | 101 | 103 | 101 | 103 | 98 | 99 | 103
Polio RdRp inh intensity | 103 | 102 | 105 | 105 | 99 | 100 | 102 | 107

#17 C=CCNc1oc(COc2cccc(Cl)c2)nc1C#N
#18 Cc1ccc2cccc(OCC(=O)N3CC(C)CC(C)C3)c2n1 (configuration not stated)
#19 Cc1oc(-c2ccc(Cl)cc2)nc1CN1CCCC(C(=O)N2CCN(C(=O)c3ccco3)CC2)C1 (configuration not stated)
#20 Cc1csc(SCc2ccc(C(=O)O)cc2)n1
#21 CCN1C(=O)c2ccc(-c3ccc(C=C4C(=O)NC(=O)NC4=O)o3)cc2C1=O
#22 CCc1ccc(OCCCn2cc(/C=C3/C(=N)N4C=CSC4=NC3=O)c3ccccc32)cc1
#23 CC1=C(C#N)C(=O)N(C)C(=O)/C1=C/c1ccc(-c2ccccc2C(=O)O)o1
#24 N#CCC(=O)N1CCN(c2ccccc2)CC1

Screen / compound no. | 17 | 18 | 19 | 20 | 21 | 22 | 23 | 24
MenB inh | -25 | -3 | 7 | -3 | -9 | -50 | 6 | 19
Mtb MbtI inh | -2 | 14 | 9 | 13 | -6 | -3 | 44 | -4
Polio RdRp inh | 102 | 106 | 100 | 101 | 91 | 106 | 98 | 99
Polio RdRp inh intensity | 101 | 107 | 102 | 98 | 116 | 108 | 98 | 101

#25 COc1ccc(C)cc1Cn1c(S(C)(=O)=O)nc2ccccc21
#26 Cn1c(=O)[nH]c(=O)c2c1nc(N1CCCC1)n2CCSc1ncccn1
#27 CC(=O)ON1C(C)(C)Cc2noc(N)c2C1(C)C
#28 Cc1nn(C)cc1NC(=O)Nc1ccc(F)cc1
#29 Cc1ccc(CN(Cc2ccco2)C(=S)NCC(=O)N2CCC3(CC2)OCCO3)cc1
#30 O=C(COCC(=O)N1CCN(c2ccccc2)CC1)N1CCN(c2ccccc2)CC1
#31 CC(=O)n1nc(-c2ccc(Cl)cc2)nc1NCc1ccc(F)cc1
#32 Cc1nc(SCC(=O)NCc2ccc(Cl)cc2)c(C#N)c(C)c1Cl

Screen / compound no. | 25 | 26 | 27 | 28 | 29 | 30 | 31 | 32
MenB inh | -22 | -31 | -12 | 2 | 7 | -36 | -9 | -31
Mtb MbtI inh | -7 | 12 | x | -4 | -2 | -3 | -1 | x
Polio RdRp inh | 101 | 102 | 105 | 106 | 99 | 101 | 104 | 97
Polio RdRp inh intensity | 105 | 103 | 109 | 114 | 103 | 90 | 104 | 129

One compound at a time (already shown):
CC(C)=NNC(=O)c1cccc2cc[nH]c12 as listed: MenB inh = -10; Mtb MbtI inh = 22; Polio RdRp inh = 103; Polio RdRp inh intensity = 102
Cc1nn(C)cc1NC(=O)Nc1ccc(F)cc1 as listed: MenB inh = 2; Mtb MbtI inh = -4; Polio RdRp inh = 106; Polio RdRp inh intensity = 114

(more compounds)
#33 O=C(COC(=O)c1ccc2ccccc2n1)NC1CC1
#34 Cc1cc(C(=O)Nc2ccc(CN3CCS(=O)(=O)CC3)cc2)no1
#35 CC(C)CCNC(=O)c1csc2c1CCCC2
#36 CCn1c(O)c(/C=C2\C=C(C)N=C2C)c(=O)[nH]c1=S
#37 O=C(CCN1CCOCC1)Nc1ccc(S(=O)(=O)Nc2cc(Cl)cc(Cl)c2)cc1
#38 CCOc1ccc(-n2c(SC(C)C(=O)NC(N)=O)nc3ccccc32)cc1 (configuration not stated)
#39 COC(=O)c1c(NC(=S)N(C)Cc2c(C)nn(C)c2C)sc2c1CCC2
#40 O=C(CSc1nc2ccsc2c(=O)n1NC(=O)c1ccccc1)NCc1ccco1

Screen / compound no. | 33 | 34 | 35 | 36 | 37 | 38 | 39 | 40
MenB inh | x | -4 | -10 | -133 | -30 | -3 | -9 | -24
Mtb MbtI inh | 12 | -9 | -12 | 1 | -7 | -7 | 16 | -22
Polio RdRp inh | 97 | 107 | 101 | 108 | 104 | 109 | 101 | 99
Polio RdRp inh intensity | 112 | 106 | 96 | 131 | 107 | 103 | 99 | 102

#41 CCCn1c(C)cc(/C=C(\C#N)C(=O)OCn2nnc3ccccc3c2=O)c1C
#42 CN(C)C(Cc1ccccc1)C(=O)c1cccn1C (configuration not stated)
#43 CC1=C(C(=O)N2CCN(c3ccccc3)CC2)C2(CCN(S(C)(=O)=O)CC2)OC1=O
#44 CC(=O)Nc1scc2c1c(=O)oc1ccccc12
#45 COc1cc(OC)nc(NC(=O)C(C)C)n1
#46 O=C(CCN1C(=O)c2ccccc2C1=O)NCCc1ccccc1
#47 O=C1C2C3c4ccccc4C(c4ccccc43)C2C(=O)N1/N=C/c1ccco1 (configuration not stated)
#48 Cc1cc(NC(=O)C(C)C)n(-c2nc3ccccc3s2)n1

Screen / compound no. | 41 | 42 | 43 | 44 | 45 | 46 | 47 | 48
MenB inh | 5 | 4 | -22 | -17 | -5 | -23 | -29 | -28
Mtb MbtI inh | 9 | 11 | -2 | 11 | x | -1 | -8 | 14
Polio RdRp inh | 103 | 102 | 102 | 103 | 106 | 103 | 105 | 102
Polio RdRp inh intensity | 102 | 108 | 102 | 101 | 111 | 104 | 98 | 108

#49 COc1ccc(CCN2Cc3nc4ccccc4c(=O)n3CC2=O)cc1
#50 O=c1cc(-c2cccs2)[nH][nH]1
#51 CCN(CC)C(=O)c1ccc(C(C)(C)C)cc1
#52 CC(C)(C)NC(=O)CN1CCN(CCC#N)CC1
#53 COc1cc2c(no[n+]2[O-])n2nnnc12
#54 COc1ccc(NS(=O)(=O)N(C)C)c(OC)c1
#55 O=C(O)C1CCCN(C(=O)c2cnn(-c3ccccc3)c2-n2cccc2)C1 (configuration not stated)
#56 O=c1cc(COc2ccccc2)nc2sccn12

Screen / compound no. | 49 | 50 | 51 | 52 | 53 | 54 | 55 | 56
MenB inh | -8 | -52 | -23 | 5 | -5 | 6 | 1 | 7
Mtb MbtI inh | -7 | x | -8 | -6 | 5 | 0 | -5 | 15
Polio RdRp inh | 105 | 97 | 105 | 99 | 98 | 102 | 102 | 99
Polio RdRp inh intensity | 110 | 102 | 97 | 108 | 100 | 103 | 102 | 103

#57 CC(c1ccccc1)N(Cc1ccccc1)C(=S)Nc1ccccc1 (configuration not stated)
#58 Nc1nc(N)c2c(n1)CCCC2
#59 COc1ccccc1C(=O)N1CCOCC1
#60 COc1ccc(NC(C)=O)cc1NC(C)C(=O)N1CCCc2ccccc21 (configuration not stated)
#61 CCOC(=O)c1c(C)n(C)c2ccc(OCC(O)CNC(C)(C)C)cc12 (configuration not stated)
#62 CCn1nnc2c(N3CCN(C=O)CC3)ncnc21
#63 CN(CC(=O)O)C(=S)c1ccccc1
#64 Cc1ccc(S(=O)(=O)N(C)c2nc3ccccc3nc2Sc2nnnn2C)cc1

Screen / compound no. | 57 | 58 | 59 | 60 | 61 | 62 | 63 | 64
MenB inh | -66 | -3 | -1 | -11 | -15 | -65 | 5 | -3
Mtb MbtI inh | -5 | -8 | x | 17 | 3 | 138 | 54* | 25
Polio RdRp inh | 104 | 101 | 103 | x | 102 | 103 | 76* | 99
Polio RdRp inh intensity | 106 | 102 | 108 | x | 100 | 99 | 80* | 96

Part of the list above in order of SMILES length, rising:
#58 Nc1nc(N)c2c(n1)CCCC2
#62 CCn1nnc2c(N3CCN(C=O)CC3)ncnc21
#60 COc1ccc(NC(C)=O)cc1NC(C)C(=O)N1CCCc2ccccc21 (configuration not stated)
#64 Cc1ccc(S(=O)(=O)N(C)c2nc3ccccc3nc2Sc2nnnn2C)cc1

Screen / compound no. | 58 | 62 | 60 | 64
MenB inh | -3 | -65 | -11 | -3
Mtb MbtI inh | -8 | 138 | 17 | 25
Polio RdRp inh | 101 | 103 | x | 99
Polio RdRp inh intensity | 102 | 99 | x | 96

Screen by screen, quoted from above:
Compounds 45–55 in Polio RdRp inh intensity: 111, 104, 98, 108, 110, 102, 97, 108, 100, 103, 102

Continuation:
#65 O=C(NCc1ccccc1)C(c1ccccn1)N(C(=O)c1csnn1)C1CC1 (configuration not stated)
#66 Cc1nn(Cc2ccccc2)c(C)c1C(=O)OCC(=O)Nc1ccc(S(N)(=O)=O)cc1
#67 Oc1ccccc1CNc1ccc(Br)cc1
#68 OC(CNCc1ccco1)CON=C1c2ccccc2-c2ccccc21 (configuration not stated)
#69 Cc1ccc(CCNC(=O)CCCn2c(=O)c3ccccc3n(CC(N)=O)c2=O)cc1
#70 Fc1ccccc1OC1OCCOC1Oc1ccccc1F (configuration not stated)
#71 COc1ccccc1N1CCN(C(=O)C(C)c2ccc(CC(C)C)cc2)CC1 (configuration not stated)
#72 CCN(CCCN1C(=O)CSC1c1ccc(OC(F)F)c(OC)c1)c1ccccc1 (configuration not stated)

Screen / compound no. | 65 | 66 | 67 | 68 | 69 | 70 | 71 | 72
MenB inh | 0 | -22 | -28 | -17 | -1 | x | -25 | -20
Mtb MbtI inh | -9 | 0 | -5 | 10 | -5 | -7 | -8 | 7
Polio RdRp inh | 100 | 105 | 101 | 103 | 101 | 104 | 102 | 98
Polio RdRp inh intensity | 102 | 104 | 95 | 107 | 101 | 100 | 100 | 99

#73 c1ccc(OCC2CCCN3CCCCC23)nc1 (configuration not stated)
#74 CC(C)(C)C(=O)CSc1nc(N)cc(N)n1
#75 O=C1CCCN1C(=O)CSc1nc2cc(Cl)ccc2s1
#76 O=C(NC1CCCCC1)C1CCN(C(=O)c2ccco2)CC1
#77 N#Cc1nc(-c2ccccc2)oc1N1CCOCC1
#78 O=C(CCc1c[nH]c2ccccc12)N1CCN(S(=O)(=O)c2ccc3c(c2)OCCO3)CC1
#79 Cc1ccc(S(=O)(=O)N2CCN(c3cnn(-c4ccccc4)c(=O)c3Cl)CC2)cc1
#80 CN(C(=O)Cn1nnc(-c2cccs2)n1)C1CCCc2ccccc21 (configuration not stated)

Screen / compound no. | 73 | 74 | 75 | 76 | 77 | 78 | 79 | 80
MenB inh | -13 | 1 | 10 | 7 | -19 | -12 | -2 | -1
Mtb MbtI inh | -16 | -1 | 12 | -6 | 107 | -10 | -2 | -9
Polio RdRp inh | 101 | 108 | 110 | 100 | 104 | 104 | 102 | 100
Polio RdRp inh intensity | 104 | 111 | 104 | 101 | 102 | 108 | 99 | 114

#81 CCC(C)N1C(=O)S/C(=C/c2ccc3c(c2)n(C)c(=O)n3C)C1=O (configuration not stated)
#82 CN(C)/N=C/C=C1\CC/C(=C\c2ccccc2)C1=O
#83 CCOc1ccc2c(c1)sc(=NC(=O)c1cc3ccccc3cc1OC)n2C
#84 O=C(NCCCN1CCCC1)c1cc2c(Cl)nc3ccccc3c2s1

Screen / compound no. | 81 | 82 | 83 | 84
MenB inh | -17 | -17 | -19 | -3
Mtb MbtI inh | 8 | 14 | -3 | -4
Polio RdRp inh | 98 | 123 | 102 | 94
Polio RdRp inh intensity | 104 | 126 | 105 | 99

Pulled by structure from the list above, 2 records:
#79 Cc1ccc(S(=O)(=O)N2CCN(c3cnn(-c4ccccc4)c(=O)c3Cl)CC2)cc1
#19 Cc1oc(-c2ccc(Cl)cc2)nc1CN1CCCC(C(=O)N2CCN(C(=O)c3ccco3)CC2)C1 (configuration not stated)

Screen / compound no. | 79 | 19
MenB inh | -2 | 7
Mtb MbtI inh | -2 | 9
Polio RdRp inh | 102 | 100
Polio RdRp inh intensity | 99 | 102
